# Bioassay records: PubChem, National Center for Advancing Translational Sciences (NCATS)
# gsp antagonist: qHTS for Antagonists of gsp, the Etiologic Mutation Responsible for Fibrous Dysplasia/McCune-Albright Syndrome: qHTS; gsp-mutant cells, cAMP HTRF, 30 min; control for the full effect not named in the record; Potency, µM (doses to about 76.9 µM), for inactives: at the top dose activity change, negative = inhibition, most hits filed as inhibitors; 340,000 compounds, 0.4% hits; active = falling curve of any shape with a large fitted effect; inconclusive = falling curve, mostly with a smaller effect; inactive = flat or rising curve; cell line not stated here;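 note: intracellular cAMP measured with PDE inhibitor Ro 20-1724 present during compound exposure; potency is the fitted concentration of half-maximal effect; % is set by controls: 0 for no effect and ±100 for the full control effect; nearly all actives have a fitted effect of over 65% in size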
#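 HTRF cAMP measurement after 30 min RT detection following 30 min, 37C compound treatment alongside […] (added as 300 uM solution) in G418-selected cells seeded at 2000/well and grown 16–24 h.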
# TRPML1 inh: qHTS for Inhibitors of the Human Mucolipin Transient Receptor Potential 1 (TRPML1); Mucolipin-1 (Homo sapiens), Q9GZU1; TRPML1-inducible cells, Ca2+ dye fluorescence, FDSS; hits give low values; inhibition of EC80 agonist-evoked calcium signal; activity change, negative = inhibition, % (test concentration not listed); 390,000 compounds, 0.02% hits; in the data active means activity change below about -50%; inconclusive means about -30% to -50%; inactive means above about -30%;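 note: stimulus is agonist 54-4 at its EC80 concentration; % is set by controls: 0 for no effect and ±100 for the full control effect; compound concentration not given in the record; the text of the record puts the active cut at -80%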
# Target sequence (Q9GZU1 whole entry, looked up): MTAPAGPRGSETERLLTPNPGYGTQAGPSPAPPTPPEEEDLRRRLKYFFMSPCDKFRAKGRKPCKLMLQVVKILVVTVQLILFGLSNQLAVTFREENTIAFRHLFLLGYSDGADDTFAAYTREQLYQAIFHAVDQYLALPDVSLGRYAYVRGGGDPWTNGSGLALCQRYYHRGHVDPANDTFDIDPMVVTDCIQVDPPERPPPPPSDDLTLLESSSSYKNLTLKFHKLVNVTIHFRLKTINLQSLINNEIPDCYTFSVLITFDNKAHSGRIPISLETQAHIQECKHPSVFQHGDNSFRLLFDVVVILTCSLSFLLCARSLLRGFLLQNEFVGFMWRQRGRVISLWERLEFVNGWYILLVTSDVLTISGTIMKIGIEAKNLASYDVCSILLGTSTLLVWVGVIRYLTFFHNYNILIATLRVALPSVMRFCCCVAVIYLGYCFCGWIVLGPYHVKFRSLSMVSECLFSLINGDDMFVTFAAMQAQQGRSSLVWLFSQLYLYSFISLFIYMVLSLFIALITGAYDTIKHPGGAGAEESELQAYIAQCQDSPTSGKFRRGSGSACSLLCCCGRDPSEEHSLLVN
#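 TRPML1-DL cells, Tet-induced overnight (~16 h, 37 °C) at 1,500 cells/well, were loaded with Ca8 no-wash dye plus quencher for 45-90 min at room temperature. Compounds were pinned during FDSS kinetic reading; agonist 54-4 at EC80 (4 uM final) then added.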
# ClpP mod: qHTS Assay for Activators of ClpP | ATP-dependent Clp protease proteolytic subunit (Bacillus subtilis (strain 168)), P80244 | purified B. subtilis ClpP, FRET peptide cleavage, 20 min | Potency, µM (doses to about 57.5 µM), inactives show at the highest dose activity change, negative = active | 340,000 compounds, 1.9% hits | AID 651965, 2013; active = well fitted falling curve with a large enough effect; inconclusive = small, poorly fitted or top-dose-only effect; inactive = no such curve, though single readings can be large or run the other way; note: potency is the fitted concentration of half-maximal effect; the source files actives as falling curves though it sought activators and does not explain the sign; nearly all actives have a fitted effect of over 65% in size; many hits overshoot -100%
# Target sequence (P80244 whole entry, looked up): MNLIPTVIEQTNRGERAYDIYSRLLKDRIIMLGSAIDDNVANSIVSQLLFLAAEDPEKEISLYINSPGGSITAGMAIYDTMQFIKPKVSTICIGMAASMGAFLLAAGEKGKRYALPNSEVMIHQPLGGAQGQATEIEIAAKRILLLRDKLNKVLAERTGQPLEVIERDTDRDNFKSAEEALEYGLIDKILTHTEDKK
#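 Buffer: 100 mM Tris/HCl pH8, 100 mM KCl, 0.05% low protease BSA, 2.5% glycerol, 0.01% Tween-20. ClpP 10 microg/mL final; 20 min RT; delta FRET normalized to ADEP and DMSO controls.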
# TRPV1 PAM: HTS Assay for Compounds that Act as Potentiators of the Vanilloid Receptor 1. Transient receptor potential cation channel subfamily V member 1 (Homo sapiens), Q8NER1. TRPV1-expressing cells, Fluo-8 calcium influx, capsaicin EC20 potentiation; host cell line not named in the record; control for the full effect not named in the record. potentiation, % at 8.33 µM. 320,000 compounds, 0.02% hits; active means potentiation above 80%; inconclusive means 30% to 80%; inactive means below 30%; note: 0% is about no effect
#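 TRPV1-expressing cells were cultured overnight at 35.5C and loaded with Fluo-8 calcium dye for 40 to 90 min at room temperature. After a 10 s baseline, compound was added and calcium influx was read kinetically for 3 min (ex 480/em 520 nm).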
# gsp agonist: qHTS for Agonist of gsp, the Etiologic Mutation Responsible for Fibrous Dysplasia/McCune-Albright Syndrome: qHTS; 340,000 compounds, 0.13% hits; AID 624287, 2012; Potency, µM (top dose mostly 76.9 µM), for inactives: top-dose activation (cAMP increase), hits mostly activators; gsp mutant cells, cAMP HTRF, 30 min; control for the full effect not named in the record; active = well fitted activation curve with a large enough effect; inconclusive = small, poorly fitted or top-dose-only effect, or another doubt; inactive = no such curve, though single readings can be large or run the other way; cell line not stated here;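 note: phosphodiesterase inhibitor Ro 20-1724 added with compounds to block cAMP breakdown; potency is the fitted concentration of half-maximal effect; nearly all actives have a fitted effect of over 60% in size; about a fifth of the inactives were tested at one dose only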
#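 Cells stably selected in G418 were plated at 2000/well, grown 16-24 hr, then given compounds in DMSO with the PDE inhibitor […] (300 uM solution added) for 30 min at 37C; cAMP was read by HTRF.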
# Sfp PPTase inh: qHTS Assay for Inhibitors of Bacillus subtilis Sfp phosphopantetheinyl transferase (PPTase); 4'-phosphopantetheinyl transferase ffp (Bacillus subtilis), Q9F4F7; Biochemical Sfp PPTase activity, qHTS; Potency, µM, inactives show max response, negative = inhibition, actives largely listed as inhibitors; 310,000 compounds, 3.5% hits; AID 1490, 2009; active = well fitted inhibition curve with a large enough effect; inconclusive = small, poorly fitted or top-dose-only effect, or another doubt; inactive = no such curve, though single readings can be large or run the other way;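 note: the enzyme is Sfp with the accession as filed and its product quenches rhodamine fluorescence; potency is the fitted concentration of half-maximal effect; 0% = enzyme reaction without inhibitor and -100% = no enzyme wells; top concentration of the series not given in the record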
#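 With Hepes-Na pH 7.6 buffer containing 10 mM MgCl2, Sfp (15 nM) modified BHQ-2-YbbR (12.5 uM) using rhodamine-CoA (5 uM). Two reads 30 minutes apart at 525/598 nm yielded each well's rate.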
# Menin-MLL FL inh: qHTS Assay for Inhibitors Targeting the Menin-MLL Interaction in MLL Related Leukemias: Competition With Fluorescein Labeled MLL-derived Peptide | Fluorescence polarization, fluorescein-MLL peptide displacement from menin | FP activity change, % at 61.4 µM | 290,000 tested, under 10 active | AID 1766, 2009; inconclusive = falling polarisation curve, or a change in total fluorescence; inactive = total fluorescence flat and polarisation flat or rising; no compound was filed as active; the % refers to the polarisation; negative = inhibition;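 note: % of control where 0% means no effect; inhibitors lower the polarisation; unlabelled MLL peptide was the positive control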
# An asterisk follows results filed as active; ? = inconclusive; . = no result given; [ ] = another dose, or the depositor's remark.
SMILES,gsp antagonist,TRPML1 inh,ClpP mod,TRPV1 PAM,gsp agonist,Sfp PPTase inh,Menin-MLL FL inh
COc1ccccc1C1NC(=O)CS1 (stereo not given),7%,-5,-1.2%,?,-2%,?,4.5
CCN(CC)c1ccc(/C=N/N2CCN(Cc3ccccc3)CC2)c(O)c1,-14%,1,-0.8%,10,-29%,-4%,-0.7
CC(C)c1ccc(NS(=O)(=O)c2ccc3c(c2)NC(=O)CO3)cc1,-10%,-8,0.8%,-4,0%,6%,.
CC(C)(C)SCCNS(=O)(=O)c1ccc(Cl)cc1,-18%,-1,.,28,10%[15.4 µM],9%,2.0
COc1ccc(/C=C2\SC(=S)N(CC(=O)N(C)C3CCS(=O)(=O)C3)C2=O)cc1 (stereo not given),-16%,-16,-1.6%,11,?,-10%,-12
CC12CCC(C(=O)NCCCN3CCOCC3)(OC1=O)C2(C)C (stereo not given),6%,1,-3.3%,8,-44%[inhibitor],3%,-8.8
CCOC(=O)N1CCC(N2CC34C=CC(O3)C(C(=O)Nc3ccc(F)cc3)C4C2=O)CC1 (stereo not given),7%,-2,-3.1%,.,-89%[inhibitor],14%,1.2
O=C(COc1cccc(C(F)(F)F)c1)NNC(=O)Cn1c(=O)cnc2ccccc21,5%,0,0.7%,-2,5%,.,.
CN(C)S(=O)(=O)c1ccc(C(=O)OCCn2cnc3c2c(=O)n(C)c(=O)n3C)cc1,1%,7,-2.1%,20,6%[15.4 µM],6%,-0.9
Cc1ccc2cc(CN(CCN(C)C)C(=S)Nc3ccccc3)c(=O)[nH]c2c1C,3%,-10,.,-1,32%[15.4 µM],0%,1.9
O=C(CCNC(=O)Cn1ccc2ccccc2c1=O)NCCc1ccccc1Cl,0%,14,-27%,7,-1%[15.4 µM],-20%,1.6
COc1ccccc1N1CCN(S(=O)(=O)c2ccccc2)CC1,2%,7,1.0%,-3,3%,-8%,0.5
N#C/C(=C/c1cn[nH]c1-c1cccc(Br)c1)C(=O)O,9%,4,-1.6%,.,?,11%,-1.3
COc1ccc(C(=O)N2CCC(C(=O)NC3CC3)CC2)cc1,-6%,2,.,-1,-3%[15.4 µM],14%,5.1
O=C(OC1Cn2c(=O)ccc(=O)n2C1)c1ccc([N+](=O)[O-])cc1,11%,-6,1.5%,-3,0%,10%,1.2
Clc1cc(Br)ccc1OCCOCCOc1cccc2cccnc12,1%,7,-15%,?,-30%[inhibitor],-8%,-0.7
COc1cc(C(=O)Nc2ccc(N3CCOCC3)cc2)ccc1OCc1c(C)noc1C,-16%,9,-1.6%,-11,33%[15.4 µM],14%,-2.5
Clc1cc(Br)ccc1OCCCNCc1ccccc1,16%,40,-1.9%,1,3%,-22%,.
Cn1c(C(=O)N2CCCC(Nc3ccc(F)cc3)C2)cc2ccccc21 (stereo not given),1%,-7,0.7%,-8,?,15%,-0.1
COCCNc1nc(-n2nc(C)cc2C)nc2sc3c(c12)CCCC3,7%,0,28µM*,-15,-37%[inhibitor],-16%,0.4
CCOC(=O)C1(NC(=O)CN2C(=O)c3ccccc3C2=O)CCCC1,10%,5,0.7%,.,-2%[15.4 µM],.,.
CCn1cc(C(=O)N2CC(C)CC(C)C2)c(=O)c2cc(S(=O)(=O)N3CCCC3)ccc21 (stereo not given),-6%,-1,-3.7%,-4,7%,3%,-4.0
O=C(CN1CCN(C(=O)c2ccc(-c3nc4ccccc4s3)o2)CC1)Nc1cccc(F)c1,.,-13,-2.8%,.,-26%,.,.
COc1ccc(CC(=O)N(c2ccccc2)c2nc(C)cs2)cc1,-10%,-1,3.7%,-1,-8%,-1%,3.8
CCNc1ccc(C(=O)OCC(=O)Nc2cc(C)on2)cc1[N+](=O)[O-],2%,0,-1.8%,3,-35%[inhibitor],.,.
O=C(Cn1nnc(-c2cccs2)n1)N1CCOCC1,9%,31,-0.5%,1,-7%[15.4 µM],23%,1.0
N#C/C(=C/c1ccc(OCc2ccccc2)cc1)C(=O)NC1CCCCC1,14%,-17,66%,6,21%,15%,-3.9
COc1ccc(N2CC(C(=O)N/N=C/c3ccc([N+](=O)[O-])cc3)CC2=O)cc1 (stereo not given),-11%,21,0.0%,-8,-9%,-9%,-1.8
O=C1CN(C(=O)NCC(=O)N[C@H](Cc2ccccc2)C(=O)O)c2ccccc2N1,5%,50,0.7%,-5,-29%,15%,-1.3
O=C(C1CCCN(S(=O)(=O)c2cc(Cl)ccc2Cl)C1)N1CCOCC1 (stereo not given),2%,5,0.7%,-26,-65%[inhibitor],4%,-3.1
COc1cc2c(cc1OC)C(c1cccs1)N(C(=S)NC(C)C)CC2 (stereo not given),-19%,6,-8.2%,-3,1%[15.4 µM],14%,-0.3
Cc1ccc(CNC(=O)CCNS(=O)(=O)c2ccc(Br)s2)cc1,-5%,-22,.,8,-4%,10%,1.2
Cc1ccc(C(=O)N/N=C/c2cccnc2)cc1Cl,.,-12,-2.1%,.,-51%[inhibitor],.,.
O=C(NCC(c1cccs1)N1CCOCC1)c1ccc([N+](=O)[O-])cc1 (stereo not given),5%,-17,-1.3%,-16,-2%[15.4 µM],4%,1.1
COC(=O)c1ccccc1NS(=O)(=O)c1ccc2[nH]c(=O)[nH]c2c1,6%,-13,-3.2%,-10,-2%,16%,1.2
COC(=O)c1ccc2c(c1)S(=O)(=O)NC(=NCCCN1CCOCC1)S2,6%,14,-5.0%,3,26%,6%,-2.0
CCCN1CCC(N2CCN(c3ccccc3OC)CC2)CC1,.,.,.,?,.,-17%,2.3
COc1ccccc1/C=C/C=N/n1c(C2CCCCC2)n[nH]c1=S,-12%,-11,-1.3%,-2,-21%,-4%,1.3
Cc1ncc(CO)c2cc(S(=O)(=O)c3ccc(F)cc3)c(=O)oc12,-1%,13,19%,-7,-1%,4%,-1.0
N#CC1=C(N)N(c2ccccc2)C2=C(C(=O)CCC2)C1c1cccs1 (stereo not given),9%,3,-20%,-3,0%,-9%,13
COC(=O)c1ccc(C(=O)Nc2ccc(N)cc2N)cc1,-7%,11,1.4%,3,-3%,-29%,2.3
Cc1ccc(NC(=O)CCC(=O)n2nc(C)cc2C)c(C)c1,3%,2,0.3%,5,3%,9%,-0.4
O=C(NC1CCS(=O)(=O)C1)Oc1ccccc1 (stereo not given),5%,-4,1.5%,0,-1%,6%,1.8
Cc1cc(C)c(OCC(=O)Nc2ccccc2N2CCCCC2)c(C)c1,-5%,33,-0.6%,-12,26%,.,.
O=[N+]([O-])c1cnccc1Nc1cccc(F)c1,1%,-13,-0.4%,-10,-16%,17%,1.3
COc1ccc(-c2cccc(C3CC=CC4C3C(=O)N(Cc3ccccc3)C4c3ccc(OC)c(Cl)c3)c2)cc1 (stereo not given),9%,3,-4.6%,19,.,0%,1.0
Cc1ccccc1NS(=O)(=O)c1ccc(C(=O)N2CCCCCCC2)cc1,-2%,2,-2.0%,-11,8%,.,.
O=C(CSc1nc2ccccc2c(=O)n1CCCN1CCOCC1)c1c[nH]c2ccccc12,-8%,17,.,-3,16%[15.4 µM],7%,-1.9
COc1cc(C(C)=O)ccc1Oc1ncccn1,-3%,-16,.,4,-6%[15.4 µM],17%,.
Cc1ncc([N+](=O)[O-])n1CCOC(=O)c1ccc(Cl)cc1Cl,3%,5,0.5%,-10,-4%,13%,2.5
CC(C)Cc1cc(C(=O)Nc2ccc3c(c2)OCO3)no1,9%,2,-0.1%,-19,-7%,-8%,4.0
COc1cc(C(=O)NC2(C(F)(F)F)NC(=O)N(CCCc3ccccc3)C2=O)cc(OC)c1OC (stereo not given),0%,-1,1.2%,7,5%[15.4 µM],1%,-1.0
COC(=O)C1(CO)NC(c2cccs2)C2C(=O)N(c3ccccc3)C(=O)C21 (stereo not given),-1%,5,0.2%,-10,13%,10%,5.3
COc1ccc(Br)cc1C1=CC(=O)C[C@H](c2ccc(F)cc2)C1,.,-5,-3.1%,.,18%,.,.
O=C(N/N=C/c1ccco1)/C(=C/c1cccc([N+](=O)[O-])c1)NC(=O)c1ccccc1,8%,12,0.9%,8,?,-6%,5.5
Cc1ccc(C)c(OCCCNC2CCCC2)c1C,18%,-10,.,9,-22%[15.4 µM],11%,-1.7
COc1ccc(S(=O)(=O)NC2CCCC2)cc1Cl,-3%,3,2.0%,9,?,3%,.
Cc1ccc(CN2CCNC(=O)C2CC(=O)N(C)C(C2CC2)C2CC2)o1 (stereo not given),9%,-8,.,3,1%,6%,-6.6
COc1ccc(NC(=O)c2cccs2)cc1OC,7%,37,-0.5%,-3,1%,-4%,0.2
CCS(=O)(=O)c1ccc2oc(SCC(=O)N3CCCCC3)nc2c1,4%,-6,.,-19,2%[15.4 µM],3%,-2.6

# Next part.
SMILES,gsp antagonist,TRPML1 inh,ClpP mod,TRPV1 PAM,gsp agonist,Sfp PPTase inh,Menin-MLL FL inh
CC(=O)N1CCN(CC(C)(C)NS(=O)(=O)c2ccccc2)CC1,1%,23,-2.1%,.,0%,.,.
Cc1ccc(C)c(OCC(=O)N/N=C/c2ccsc2)c1,16%,-12,-1.5%,7,27%,-5%,3.6
CCOC(=O)C1CCN(C(=S)Nc2ccc(S(N)(=O)=O)cc2)CC1,6%,1,-2.5%,-10,6%,45µM*,-8.0
CCOc1ccc(/C=C(\C#N)C(=O)Nc2cccnc2)cc1,15%,-14,1.9%,14,-52%[inhibitor],8%,3.2
